Ecoli growth – E. coli growth inhibition, primary screen, OD600. Escherichia coli growth, 23 h; stronger effect = lower value. 0.21% of 330,000 active. AID 1053175, 2014. OD600 absorbance (concentration not given with the values);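 active means OD600 absorbance below the run mean of sample wells minus 3.6 SD, in any replicate, cut at about 0.56 in these data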;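 further: stock transfer was 300 nL into about 60 µL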
UCH37 inh – inhibitors of human UCH37 deubiquitinase, primary screen, biochemical, Ub-AMC cleavage, fluorescence; Ubiquitin carboxyl-terminal hydrolase isozyme L5 (Homo sapiens), Q9Y5K5; AID 588478, 2011; 0.33% of 330,000 active; purified proteasome/UCH37; inhibition, % (no concentration beside the values);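 active means mean of two replicates above 20%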;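 further: 0% = compound-free wells with enzyme and 100% = wells lacking proteasome; stock transfer was 100 nL into about 20 µL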
Target sequence (Q9Y5K5 whole entry, looked up): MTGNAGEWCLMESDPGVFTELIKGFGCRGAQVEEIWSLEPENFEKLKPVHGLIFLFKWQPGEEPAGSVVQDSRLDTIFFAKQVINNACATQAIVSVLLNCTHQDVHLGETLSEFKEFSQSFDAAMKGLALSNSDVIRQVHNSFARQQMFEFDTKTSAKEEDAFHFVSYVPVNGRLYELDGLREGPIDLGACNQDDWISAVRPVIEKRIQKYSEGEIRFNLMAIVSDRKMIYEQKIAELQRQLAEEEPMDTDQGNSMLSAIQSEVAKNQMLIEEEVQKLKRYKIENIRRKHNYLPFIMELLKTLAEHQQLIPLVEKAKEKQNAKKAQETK
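Material: human UCH37 enzyme supplied as purified proteasome complex / Amount: 0.15 nM proteasome as dispensed / Buffer or medium: pH 7.4 Tris-HCl (50 mM) with ovalbumin, ATP-MgCl2, DTT / Times: preincubation 30 min, reaction 25 min, room temperature / Technique: AMC fluorescence from Ub-AMC cleavage, excitation 355 nm, emission 460 nm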
Vif A3G – inhibitors of Vif binding to APOBEC3G peptide, primary screen, biochemical, TR-FRET, GST-Vif 1-94, biotin-A3G peptide, dose response retest (AID 1117319); Virion infectivity factor (Human immunodeficiency virus type 1 group M subtype B (isolate …; TR-FRET GST-Vif / biotin-A3G peptide binding; higher % means a stronger effect; test concentration not given here; strong numbers were not always called active; one-dose inhibition, %; IC50 in µM for titrated hits; 0.57% of 260,000 active;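 active means above the screen mean plus three standard deviations and confirmed in dose response; inconclusive means results disagree or hit not tested in dose response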;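 further: Vif residues 1-94 fused to GST binding biotinylated APOBEC3G peptide 110-148; 0% = full assay without inhibitor and 100% = GST in place of GST-Vif; retest series ran down from 100 µM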
AF4-AF9 inh – inhibitors of AF4 peptide binding to AF9, primary screen, biochemical, AlphaScreen, biotin-AF4 peptide, FLAG-AF9, single point | 0.47% of 350,000 active | inhibition, % at 10 µM | Protein AF-9 (Homo sapiens), P42568;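 active means every replicate reaching a set inhibition limit, whatever the replicate mean, cut at about 25% in these data; inconclusive means mean inhibition reaches that limit but some replicates miss it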;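 further: 0% = plate neutral control median and 100% = total signal loss; the record names both 10 and 1 µM as test concentration; the first replicate is given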
Target sequence (P42568 whole entry, looked up): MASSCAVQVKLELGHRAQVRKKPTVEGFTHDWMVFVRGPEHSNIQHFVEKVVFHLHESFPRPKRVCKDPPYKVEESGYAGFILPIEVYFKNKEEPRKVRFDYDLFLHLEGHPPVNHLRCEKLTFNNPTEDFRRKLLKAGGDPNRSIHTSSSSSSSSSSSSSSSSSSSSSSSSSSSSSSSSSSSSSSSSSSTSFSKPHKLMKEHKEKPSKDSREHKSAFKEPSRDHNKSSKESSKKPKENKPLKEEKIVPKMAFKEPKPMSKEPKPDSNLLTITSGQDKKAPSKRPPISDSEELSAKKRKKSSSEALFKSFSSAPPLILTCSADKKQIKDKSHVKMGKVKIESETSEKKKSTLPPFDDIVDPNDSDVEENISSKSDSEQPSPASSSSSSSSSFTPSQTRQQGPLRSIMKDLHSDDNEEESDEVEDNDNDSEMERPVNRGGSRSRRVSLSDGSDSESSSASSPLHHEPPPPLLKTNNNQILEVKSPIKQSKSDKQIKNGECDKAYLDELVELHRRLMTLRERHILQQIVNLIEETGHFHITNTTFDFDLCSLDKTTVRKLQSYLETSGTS
RanGTP-Impb inh – inhibitors of RanGTP-importin-beta interaction, primary screen, biochemical, FRET, CFP-Ran, YFP-importin-beta, homogeneous; inhibition, % (concentration not given with the values); 1.1% of 300,000 active; cell-free CFP-Ran/YFP-importin-beta FRET ratio;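 active means most replicates above 15%; inconclusive means exactly half above 15%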;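 further: 0% = DMSO wells and 100% = Ran loaded with GDP instead of GTP; wells of about 40 µL received 100 nL stock; the first replicate is given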
HNF4A DNA FP – change in binding of human HNF4A to DNA, primary screen, biochemical, fluorescence polarization, FITC-DNA. 1 h. activity change, % at 10 µM. 0.3% of 360,000 active. AID 1224865, 2016; in the data active means activity change above about 30%, passing the limit was not always enough;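 further: controls were the assay level and a saturating level of protein; the project sought stronger binding though the title names inhibitors; some compounds called inactive have numbers as strong as hits; positive values seem to mean higher polarization but the record does not say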
FGF22 binding – binders of human FGF22 protein, primary screen, FGF22 synaptogenesis inhibitor project, biophysical, thermal shift, single point. Fibroblast growth factor 22 (Homo sapiens), Q9HCT0. recombinant FGF22 thermal shift, SYPRO orange fluorescence; percent of sucrose octasulfate shift, DMSO zero. calls only at 9.99 µM. 1.5% of 340,000 active. AID 651658, 2012;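 active means melting point raised past a set limit in the mean and every replicate; inconclusive means no clear call; three in four hits are not shown here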
Target sequence (Q9HCT0 whole entry, looked up): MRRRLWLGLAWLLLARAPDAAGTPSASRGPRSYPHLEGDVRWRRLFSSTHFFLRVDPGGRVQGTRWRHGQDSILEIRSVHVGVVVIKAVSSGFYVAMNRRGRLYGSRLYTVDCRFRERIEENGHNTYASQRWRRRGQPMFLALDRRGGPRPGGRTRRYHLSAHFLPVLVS
Numbers without * were called inactive; i = inactive; ? = inconclusive; · = not tested or not shown; & = joins results of further samples.

Start of the listing, in advance, three compounds:
smiles	Ecoli growth	UCH37 inh	Vif A3G	AF4-AF9 inh	RanGTP-Impb inh	HNF4A DNA FP	FGF22 binding
O=C(CSC1c2ccccc2-c2ccccc21)N/N=C/c1ccc(C(=O)O)cc1	·	·	7%	1.7	5.4	-0.1	i
COc1cccc(NC(=O)N2CCC3(CC2)OCCO3)c1	0.7	4.1	-3%	·	-3.9	0.1	·
C=C(COC(C)=O)CC1CC(O)[C@]2(C)OC3CC4OC5C[C@]6(C)O[C@]7(C)CCC8OC9C[C@]%10(C)OC%11C(C)=CC(=O)OC%11CC%10OC9C[C@@H](C)C8OC7CC6O[C@]5(C)C/C=C\C4OC3CC2O1 (stereo partly specified)	·	-1.9	-1%	·	1.7	-2.2	·

The listing, previewed entries included:
smiles	Ecoli growth	UCH37 inh	Vif A3G	AF4-AF9 inh	RanGTP-Impb inh	HNF4A DNA FP	FGF22 binding
O=C(CSC1c2ccccc2-c2ccccc21)N/N=C/c1ccc(C(=O)O)cc1	·	·	7%	1.7	5.4	-0.1	i
COc1cccc(NC(=O)N2CCC3(CC2)OCCO3)c1	0.7	4.1	-3%	·	-3.9	0.1	·
C=C(COC(C)=O)CC1CC(O)[C@]2(C)OC3CC4OC5C[C@]6(C)O[C@]7(C)CCC8OC9C[C@]%10(C)OC%11C(C)=CC(=O)OC%11CC%10OC9C[C@@H](C)C8OC7CC6O[C@]5(C)C/C=C\C4OC3CC2O1 (stereo partly specified)	·	-1.9	-1%	·	1.7	-2.2	·
O=C(COc1ccc(Cl)cc1)N1CCN(C/C=C/c2ccccc2)CC1	0.64	6.0	15%	·	-2.6	-3.7	·
Cc1cc(N2CCCCC2)ccc1C=C1C(=O)N(C)C(=S)N(C)C1=O	0.65	6.3	·	·	-0.8	4.4	·
COC(=O)C1=C(c2ccc(Cl)c(C(F)(F)F)c2)C[C@@H]2CC[C@H]1N2C(=O)N1CCC(C)CC1	0.73	2.1	·	·	·	4.2	·
O=c1cccc2n1CC1CC2CN(Cc2ccc3c(c2)OCO3)C1 (stereo unspecified)	0.65	2.6	·	·	-1.5	-2.7	·
N=C1c2ccccc2CN1c1ccc(F)c([N+](=O)[O-])c1	0.68	2.1	0%	-0.2	-2.1	2.5	i
CC(C)CC1(CCc2ccccc2)C(=O)NC(=O)NC1=O	0.7	4.3	-6%	5.5	·	1.3	i
O=C(c1ccc(Cl)cc1)C12CN3CN(CN(C3)C1)C2	0.76	-0.4	-1%	·	-1.7	4.0	·
CN1CCN(CC(=O)Nc2ccc(Cl)cc2C(=O)c2ccccc2)CC1	0.8	3.2	-3%	·	-3.6	-1.5	·
COc1ccc(CC(=O)N2CCN(C)CC2)cc1	0.61	1.1	0%	·	-1.4	-0.2	·
Cc1c(C=O)c2ccccc2n1Cc1ccc([N+](=O)[O-])cc1	0.68	1.4	-3%	6.7	-0.6	3.9	i
COc1ccc(Cn2c(O)c(C=NCCCn3ccnc3)c(=O)[nH]c2=O)cc1	0.65	2.5	7%	·	4.6	1.2	·
CCC(=Nc1ccccc1N)c1c(O)[nH]c(=O)[nH]c1=O	0.68	3.1	-6%	0.0	-4.7	0.8	i
CC(C)c1cccc(C(C)C)c1OCCn1ccnc1	0.69	0.7	20%	·	4.6	-2.3	·
Cc1cccc(CS(=O)(=O)Cc2ccc(C(=O)N3CCC4(CC3)OCCO4)o2)c1	0.72	-0.7	16%	·	6.8	1.4	·
O=C(O)CC1OCC=C2CN3CCC45c6ccccc6NC4C1C2CC35 (stereo unspecified)	·	·	8%	0.0	0.6	-1.6	i
CCOc1ccc(-n2c(O)c(C=NCCN(CC)CC)c(=O)[nH]c2=O)cc1	0.65	0.0	1%	·	1.6	11	·
COc1ccc(-n2c(=O)[nH]c3ccccc3c2=O)cc1	0.74	4.3	23%	·	-0.9	2.2	·
c1ccc(-c2ccncc2)cc1	0.72	3.4	·	-3.2	·	-1.2	i
CC1CCCN1CCC(C(N)=O)(c1ccccc1)c1ccccc1 (stereo unspecified)	0.66	-1.9	-4%	2.3	·	3.5	i
CNC(C(=O)c1ccccc1)C(OC(C)C)c1ccc(Cl)cc1 (stereo unspecified)	0.68	3.4	2%	·	?	4.8	·
COc1cccc(C(c2nnnn2C(C)(C)C)N2CCC3(CC2)C(=O)NCN3c2ccccc2)c1OC (stereo unspecified)	·	·	·	6.2	·	1.4	i
O=C1C(=O)N(c2ccccc2)P(=O)(N(CCCl)CCCl)N1c1ccccc1	0.68	2.3	-1%	0.4	·	5.7	i
C=CCN1C(=O)NC(=O)/C(=C/c2cc3c4c(c2)CCCN4CCC3)C1=O	0.68	-0.6	·	0.4	·	-8.5	i
CC12CC[C@H]3[C@@H](CCC4(O)C[C@H](O)CCC34/C=N/NC(=O)Cc3ccccc3)C1(O)CCC2C1=CC(=O)OC1 (stereo partly specified)	·	·	2%	-0.4	-0.7	0.5	i
Cc1nc2cc([N+](=O)[O-])ccc2c(=O)n1-c1cccc(Br)c1	0.68	3.3	·	3.1	0.7	-8.2	i
O=C(C(Cc1ccccc1)NS(=O)(=O)c1cccc2nsnc12)N1CCC2(CC1)OCCO2 (stereo unspecified)	0.68	4.4	-2%&3%	·	5.2	6.3	·
CCN(CC)C(=O)c1ccc(NC(=O)COC(=O)c2ccc(Cl)s2)cc1	0.7	-2.6	-12%	1.5	·	-0.7	i
Cc1nc2ccccc2c(=O)n1-c1ccccn1	0.66	1.2	1%	·	4.4	0.5	·
CCCNC(=O)N1[C@H]2CC[C@@H]1C(C(=O)OC)=C(c1cccc(Cl)c1)C2	·	4.6	·	1.5	·	0.1	i
N#C/C(=C\c1ccc(O)cc1)C(=O)O (tested in a mixture with another compound)	·	·	·	-4.3	·	2.5	i
NC(Cc1ccccc1)c1nc(-c2ccccc2)no1 (stereo unspecified)	0.67	2.4	1%	4.9	-4.4	0.2	·
Cc1nn(Cc2ccccc2)c(Cl)c1C(=O)Nc1ccc(OC(F)(F)F)cc1	0.65	-3.7	·	·	-1.0	2.3	·
CCCCCn1c(=O)c(C(=O)Nc2cnccn2)c(O)c2ccccc21	0.66	-3.2	7%	-1.6	2.7	1.9	·
O=C(NC(=C(Cl)Cl)P(=O)(c1ccccc1)c1ccccc1)c1ccccc1	0.62	2.0	0%	-2.4	3.2	-3.1	i
c1ccc2sc(NC3=NCCN3)nc2c1	0.65	2.7	-3%	1.1	-1.3	0.2	i
CC(CNC(=O)c1ccc(NC2=NC3CS(=O)(=O)CC3S2)cc1)c1ccccc1 (stereo unspecified)	0.8	2.4	·	4.8	-0.9	3.0	i
COc1ccc2c(c1)c(C(=O)O)c(C)n2CC(C)C	0.67	0.5	-2%	-34	7.1	-1.2	i
CCOc1cc(C2NCc3ccccc3-n3cccc32)ccc1OC (stereo unspecified)	0.67	6.4	-4%	18	1.1	1.0	i
COc1ccc(C=C2C(=O)NC(=S)NC2=O)cc1	·	·	·	-4.3	·	-0.9	i
OC(Cc1ccccc1)(c1ccccc1)C1CN2CCC1CC2 (stereo unspecified)	0.67	4.6	12%	·	-2.5	-1.0	·
Cc1ccc(-n2c(CNCc3ccc(F)cc3)nc3ccccc3c2=O)cc1	0.68	4.3	·	0.3	1.8	-0.2	i
CC(C)=CCc1c(O)cc2c(c1O)C(=O)CC(c1ccc(O)cc1)O2 (stereo unspecified)	0.67	2.8	·	0.4	2.4	1.3	i
CN1C(=O)CN=C(c2ccc[nH]2)c2cc(Cl)ccc21 (tested in a mixture with another compound)	·	·	3%	5.5	·	-4.0	i
CCOC(=O)CNC(=O)N1Cc2ccc(Br)cc2-n2nncc2C1	·	·	·	-0.7	·	-1.2	i
COc1ccc(-n2nnnc2C(c2cccc3ccccc23)N2CCC(n3c(=O)[nH]c4ccccc43)CC2)cc1 (stereo unspecified)	·	·	·	-4.7	·	1.0	i
O=C(CCc1nc(-c2ccccc2F)no1)N1CCC2(CC1)OCCO2	0.8	4.0	24%	·	0.7	0.8	·
O=c1c2ccccc2nc(-c2ccccc2F)n1-c1ccccc1	0.68	3.4	·	-0.5	?	-3.5	i
Cc1c(CC(=O)N2C[C@H]3C[C@@H](C2)c2cccc(=O)n2C3)c(=O)oc2cc(O)c(Cl)cc12	0.79	i	·	-1.6	75*	2.0	i
CCC(C)NC(=O)CCC(=O)OC1O[C@H]2OC3(C)CC[C@H]4[C@H](C)CCC(C1C)C24OO3 (stereo partly specified)	0.5*	3.0	-2%	-2.9	0.8	1.0	i
CC(C)NC(C)C(=O)c1ccc2ccccc2c1 (stereo unspecified)	0.68	-26	-2%	-5.5	-0.1	-3.1	·
COc1ccc(-n2c(O)c(C=Nc3c(C)n(C)n(-c4ccccc4)c3=O)c(=O)[nH]c2=O)cc1	0.71	9.8	-7%	·	-0.8	4.1	·
Cc1cc(OCC(=O)N2CCC(C(=O)O)(c3ccccc3)CC2)c2c(C)cc(=O)oc2c1	0.77	-143	·	-2.1	4.9	5.2	i
COc1ccc(-n2c(O)c(C=NCCCn3ccnc3)c(=O)[nH]c2=O)cc1	0.67	0.5	0%	·	9.7	-3.0	·
CC(N)C(=O)OC(C)(C)Cc1ccc(Cl)cc1 (stereo unspecified)	0.65	1.4	·	-1.4	·	-0.6	i
O=C(Nc1cccc(Cl)c1)OC1CN2CCC1CC2 (stereo unspecified)	0.68	6.5	8%	-6.5	-1.0	6.9	i
O=C1CC(=O)N(c2ccc3c(c2)OCO3)C(=O)N1	0.71	1.7	16%	·	-2.6	7.5	·
CN1C(=O)C(=Cc2cccnc2)C(=O)N(C)C1=O	0.7	5.5	31%	0.3	1.2	0.9	i

The listing continues.
smiles	Ecoli growth	UCH37 inh	Vif A3G	AF4-AF9 inh	RanGTP-Impb inh	HNF4A DNA FP	FGF22 binding
C[C@]12CC[C@H](O)C[C@@H]1CC[C@@H]1[C@@H]2CC[C@]2(C)[C@@H](C(=O)O)C[C@@H]12	·	2.3	·	-1.8	8.5	-2.8	i
CCCc1cc(=O)oc2cc(OCC(=O)N3CCC(C(=O)O)(c4ccccc4)CC3)ccc12	0.69	-53	·	1.0	4.1	1.3	i
CC(ON1CC1(C(F)(F)F)C(F)(F)F)(C(N)=O)C(N)=O (stereo unspecified)	0.69	1.4	5%	·	0.2	-1.5	·
CCOC(=O)COc1ccc2c(c1)c(C(C)=O)c(C)n2Cc1ccccc1	0.7	-4.0	-8%	-0.6	-1.4	3.4	i
O=C1NC(=O)C(CCc2ccccn2)(Cc2cccc(Cl)c2Cl)C(=O)N1c1ccc(Br)cc1 (stereo unspecified)	0.69	2.6	8%	1.9	-0.5	1.5	i
O=c1c2ccccc2nc(/C=C/c2ccccc2)n1-c1ccc(O)cc1	0.64	-13	-1%	8.3	2.9	3.6	i
O=C(C1CC(c2ccccc2O)=NO1)N1CCC2(CC1)OCCO2 (stereo unspecified)	0.67	3.5	7%	·	5.9	1.1	·
COCc1cc(C2SCC(=O)Nc3c2c(=O)[nH]n3C(C)C)ccc1OC (stereo unspecified)	0.78	2.9	4%	·	-1.8	3.1	·

Source: PubChem BioAssay

An excerpt (hit frequency here may not be typical).
